# Screening results as filed in PubChem.
# VDR inh: Inhibitors of the vitamin D receptor (VDR): qHTS; Vitamin D3 receptor (Homo sapiens), P11473; VDR-SRC2-3 peptide fluorescence polarization, 2 h; Potency, µM, inactives show max response, negative = inhibition, usual class: inhibitors; actives 0.93% (n = 400,000); AID 504847, 2011; active = well fitted inhibition curve with a large enough effect; inconclusive = small, poorly fitted or top-dose-only effect, or another doubt; inactive = no such curve, though single readings can be large or run the other way; also: series mostly up to about 120 µM
# Target sequence (P11473 whole entry, looked up): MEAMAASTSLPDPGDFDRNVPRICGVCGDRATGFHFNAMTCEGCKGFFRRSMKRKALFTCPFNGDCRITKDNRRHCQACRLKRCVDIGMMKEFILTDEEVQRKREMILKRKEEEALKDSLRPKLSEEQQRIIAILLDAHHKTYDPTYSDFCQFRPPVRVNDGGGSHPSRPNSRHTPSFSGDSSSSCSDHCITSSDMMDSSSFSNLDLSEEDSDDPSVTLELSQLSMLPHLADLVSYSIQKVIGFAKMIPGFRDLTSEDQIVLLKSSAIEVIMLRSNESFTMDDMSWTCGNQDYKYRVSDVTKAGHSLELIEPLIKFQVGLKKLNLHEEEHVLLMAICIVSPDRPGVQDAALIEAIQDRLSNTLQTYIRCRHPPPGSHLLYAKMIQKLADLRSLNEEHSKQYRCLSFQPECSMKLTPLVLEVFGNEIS
#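 Fluorescence polarization assay of small-molecule disruption of VDR binding to coregulator peptide SRC2-3. Compounds and controls pin-transferred, then read after 2 h incubation at ambient room temperature.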
# * = called active by the depositor; ? = inconclusive; & = joins results of further samples. % is scaled to controls: 0 for no effect and ±100 for the full control effect; potency is read from the fitted curve at half-maximal effect.
SMILES | VDR inh
CCN(C[C@H]1N[C@@](Cc2ccccc2)(C(=O)OC)[C@H]2C(=O)N(Cc3ccccc3)C(=O)[C@@H]12)S(=O)(=O)c1ccc(OC)cc1 | -5%
COc1ccc(-c2nc(=N)sn2-c2ccccc2)cc1 | ?
O=C(Nc1c(-c2ccccc2)nc2ccccn12)c1ccc(Br)cc1 | -3%
COc1cccc(OCc2cc(/C=N/NC(=O)c3nc(Cl)c(Cl)c(N)c3Cl)ccc2OC)c1 | 3%
COc1cc(CNC(C)(C)CO)ccc1OCC(=O)NC(C)(C)C | 0%
COc1ccc(-c2cc(C(F)(F)F)nc(NCc3ccc(F)cc3)n2)cc1 | -6%
CCCc1cc(=O)n2[nH]c(C)c(-c3ccc(Cl)cc3)c2n1 | -24%
NC(=O)CC(NC(=O)Cc1ccc(Br)cc1)c1ccc(N2CCN(c3ccc(F)cc3)CC2)c([N+](=O)[O-])c1 (configuration not stated) | -14%
CCCc1cc(=O)oc2cc(OCC(=O)NCCCN3CCCC3=O)ccc12 | 10%
Cc1c(CN2CCCCC2)c(O)n(CCCO)c(=O)c1C#N | 20%

# Overlap with the part before: two compounds, followed by the next part.
SMILES | VDR inh
CCCc1cc(=O)oc2cc(OCC(=O)NCCCN3CCCC3=O)ccc12 | 10%
Cc1c(CN2CCCCC2)c(O)n(CCCO)c(=O)c1C#N | 20%
CC(C)(C)S(=O)N1Cc2cn(Cc3ccccc3)c(=O)cc2[C@H]1CCO (some centres not stated) | -5%
O=C1[C@@H]2[C@@H]3C[C@@H]([C@H]4ON=C(c5ccc(OCc6ccccc6)cc5)[C@@H]34)[C@@H]2C(=O)N1c1ccc2c(c1)OCO2 | -6%
COc1ccc(C2=CSC(/N=C/c3ccc(F)cc3)=NN2)cc1 | -83%
COc1ccc(N2CCN(C3(c4ccccc4)C(=O)c4ccccc4C3=O)CC2)cc1 | -21%
Cc1ccc(OCCCC(=O)N2CCN(S(=O)(=O)c3cccc(F)c3)CC2)cc1 | -2%
O=C(OCC(=O)N(C1CCCCC1)C1CCCCC1)c1ccncc1 | -19%
Cc1ccc(C(c2nnnn2Cc2ccccc2)N2CCN(Cc3ccccc3)CC2)cc1 (configuration not stated) | 6%
CC(=O)Nc1ccc(NC(=O)c2cccc(-c3cc4ccccc4oc3=O)c2)cc1 | -12%
CCOc1ccc(-c2nc3c(C#N)c[nH]n3c2NC2CCCC2)cc1 | 2%
Cc1ccc2cc(CN(CCCN3CCOCC3)C(c3nnnn3Cc3ccco3)C(C)C)c(=O)[nH]c2c1C (configuration not stated) | -21%
Cn1c(SCC(=O)N2CCN(S(=O)(=O)c3ccc(Cl)cc3)CC2)nc2ccccc21 | -4%
Cc1ccc(NC(=O)COC(=O)c2cc(-c3cccs3)nn2-c2ccccc2)cc1[N+](=O)[O-] | -9%
OCC[C@@H]1NCc2cc(CO)cc(-c3ccccc3)c21 | -11%
CCC(C)(C(=O)NC1CCCCC1)N(C(=O)CC1NC(=O)NC1=O)c1c(C)n(C)n(-c2ccccc2)c1=O (configuration not stated) | -10%
C#CCSc1nnc(-c2sc3ccccc3c2Cl)o1 | -11%
O=C(O)CNC(=S)N(Cc1ccccc1F)C1CCCCC1 | 8%
Cc1noc(C(=O)NCc2ccccc2)c1Cl | 2%
COC(=O)c1cc(NC(=O)C23CCC(C)(C(=O)O2)C3(C)C)cc(C(=O)OC)c1 (configuration not stated) | -1%
Cc1cccn2c(=O)c(C=O)c(N3CCN(c4ccccc4)CC3)nc12 | -5%
COCCCNC(=O)/C(C#N)=C/c1ccc(OCC(=O)O)c(OC)c1 | -5%
C=CCn1c(SCC(=O)c2ccc(Br)cc2)nnc1C(C)NC(=O)Cc1ccc(OC)cc1 (configuration not stated) | 7%
COC(=O)c1c(-c2ccc(SC)cc2)sc2ccc(OC)cc12 | -26%
O=C(CCC(=O)N1CCOc2ccccc21)NCc1cccs1 | 10%
COc1cc(/C=N\NC(=O)c2ccc(Cn3cc(Br)c([N+](=O)[O-])n3)o2)cc(OC)c1O | -1%
CCCn1c(C(C)Nc2nc(-c3ccc(C)cc3)cs2)nc2ccccc21 (configuration not stated) | 2%
S=c1[nH]nc(COc2ccccc2)n1/N=C/c1cccc(Cl)c1Cl | -4%
O=C(N/N=C/c1ccc(N2CCOCC2)cc1)c1ccncc1 | -16%
Cc1cc(S(=O)(=O)NC2CCCCC2)c(C)s1 | -9%
CCOC(=O)Cc1csc(NC(=O)COc2ccccc2)n1 | -21%
O=C(CSc1ccccc1)Nc1ccccc1C(=O)O | -3%
O=C(CCSc1nc(-c2ccco2)cc(C(F)(F)F)n1)NCc1ccccn1 | 10%
Cc1ccccc1CN(c1ccc(C(=O)Nc2ccccc2C(=O)N2CCCC2)cc1)S(C)(=O)=O | -11%
COc1ccc(C(=O)N(Cc2ccc(N(C)C)cc2)Cc2ccco2)cc1Cl | 5%
CS(=O)(=O)N(CC(=O)NCc1ccc2c(c1)OCO2)c1ccc(Cl)cc1 | -8%
CC(C)NC(=O)c1cc(-c2ccc3c(c2)OCO3)on1 | -2%
COc1ccc(N2CCN(CCCNC(=O)c3cc(Nc4ccc(OC)cc4OC)nc4ccccc34)CC2)cc1 | 0%
O=C(CN1CCN(Cc2ccccc2F)C1=O)NCCN1CCOCC1 | -9%
Cc1ccc(NC(=O)CSc2nnc(-c3ccco3)c(-c3ccco3)n2)cc1 | ?
Oc1[nH]c2ccccc2c1N=Nc1ccccn1 | -5%
CC(=O)N=Cc1c(C)c(C#N)c(=O)n(C)c1O | 6%
CN(C)CCC(=O)c1ccc2c(c1)OCO2 | 79µM*
COc1ccc(-c2[nH]ncc2/C=C(/C#N)C(=O)NC2CCCCCC2)cc1 | -4%
CCc1ccc2oc(-c3ccc(C)c(NC(=O)/C=C/c4ccco4)c3)nc2c1 | -8%
O=C(CSc1ccc([N+](=O)[O-])cn1)Nc1cc(C(F)(F)F)ccc1N1CCOCC1 | -10%
O=C(CSc1nc2ccccc2n1Cc1c(F)cccc1Cl)N1CCN(c2ccc(F)cc2)CC1 | -8%
CCN(/N=C/c1ccc(Cl)cc1)c1cc(=O)n(C)c(=O)[nH]1 | -11%
O=C(Cn1cccn1)c1ccccc1 | -10%
CCSc1nnc(NC(=O)c2cc(C)on2)s1 | 6%
CCCNC(=O)c1cccc(Cn2nc(C)c(Br)c2C)c1 | 13%
Cc1cccc(N2CCN(c3ncnc4c3nc3n4CCCCC3)CC2C)c1 (configuration not stated) | 8%

# (next part)
SMILES | VDR inh
O=C(O)C1CCCN(S(=O)(=O)c2cccc3cccnc23)C1 (configuration not stated) | -15%
NC(=O)CN1CCCN(S(=O)(=O)c2ccc(Br)cc2)CC1 | -9%
COc1cccc(NC(=S)N2c3ccccc3CC2C)c1 (configuration not stated) | 4%
CCN(CC)c1ccc(/C=C(/C#N)C(=O)NC(C)C)o1 | -6%
COc1ccccc1N1CCN(CCC(=O)Nc2ccc(F)cc2)CC1 | 4%
COc1ccc(C2CC(=O)N(Cc3cccc(C)c3)c3c2c(C)nn3-c2nc(C)cc(C)n2)c(OC)c1 (configuration not stated) | 11%
CC(NC(c1ccccc1)c1ccccc1)C(=O)N1CCCc2ccccc21 (configuration not stated) | -5%
Cc1ccc(OCC(=O)OCC(=O)NC2CC2)cc1C | 4%
CCOc1ccc(NC(=O)C2CCN(c3nnc(-n4c(C)ccc4C)s3)CC2)cc1 | 3%
Cc1cccc2cc(CN(Cc3cccs3)S(=O)(=O)c3ccc4c(c3)OCCO4)c(=O)[nH]c12 | -11%

# 7 compounds picked at random from those above:
SMILES | VDR inh
Cc1ccc(OCC(=O)OCC(=O)NC2CC2)cc1C | 4%
Cc1ccc(NC(=O)CSc2nnc(-c3ccco3)c(-c3ccco3)n2)cc1 | ?
COc1cc(/C=N\NC(=O)c2ccc(Cn3cc(Br)c([N+](=O)[O-])n3)o2)cc(OC)c1O | -1%
O=C(CSc1ccc([N+](=O)[O-])cn1)Nc1cc(C(F)(F)F)ccc1N1CCOCC1 | -10%
CCOc1ccc(-c2nc3c(C#N)c[nH]n3c2NC2CCCC2)cc1 | 2%
CCCc1cc(=O)n2[nH]c(C)c(-c3ccc(Cl)cc3)c2n1 | -24%
O=C(CSc1ccccc1)Nc1ccccc1C(=O)O | -3%

# (further entries)
SMILES | VDR inh
O=C(/C=C/c1ccc2c(c1)OCO2)c1ccco1 | ?
CC(=O)Nc1ccc(C(=O)N2CCCC2)cc1 | -14%
Cc1cc2nc(-c3ccc(OCc4ccccc4F)cc3)cc(C(F)(F)F)n2n1 | -10%
C=CCN1C(=O)C(CC(=O)Nc2ccc(OC)cc2)N(Cc2ccco2)C1=S (configuration not stated) | -20%
CCCOc1ccc(NC(=O)CC2C(=O)N(c3ccc(Cl)cc3)C(=O)N2CCc2ccncc2)cc1 (configuration not stated) | 14%
COc1ccc(CNC(=O)CCCC(=O)n2nc(C)c3ccccc32)cc1 | -13%
Nc1nc(CN2CCN(c3ccccc3F)CC2)nc(N2CCCc3ccccc32)n1 | -15%
CC(=O)Nc1ccc(S(=O)(=O)N2CCC(C(=O)NCCc3ccc(Cl)cc3)CC2)cc1 | 8%
Cc1cccc(N2C(=O)C(Oc3ccc(Cl)cc3Cl)C2C=O)c1C (configuration not stated) | ?
Cc1cc(C(=O)NC(C)Cc2ccccc2)cc(C)c1[N+](=O)[O-] (configuration not stated) | 0%
O=C(O)c1cccc(NC(=O)c2cc(S(=O)(=O)N3CCOCC3)cs2)c1 | 7%
CC(C)(C)c1ccc(C(O)CCCN2CCC(C(O)(c3ccccc3)c3ccccc3)CC2)cc1 (configuration not stated) | -1%&6%&-9%&12%
CCCCn1c(N)c(N(CCOC)C(=O)C2CC(=O)N(Cc3ccc(C)cc3)C2)c(=O)[nH]c1=O (configuration not stated) | -9%
COc1cccc(OC)c1Cn1nnc2c(=O)[nH]c(C3CCN(C(=O)c4ccccc4)CC3)nc21 | 1%
CN1CCN(c2ncc3nc(-c4ccccc4)c(=O)n(CCC#N)c3n2)CC1 | 8%
O=C(COC(=O)CN1C(=O)C2CCCCC2C1=O)Nc1c(Cl)cccc1Cl (configuration not stated) | 11%
CC(Oc1ccc(C(=O)NC2CCCCC2)cc1)C(=O)O (configuration not stated) | 15%
Cc1ccc(CN2CCN(CC(=O)NC(C)CCc3ccccc3)C2=O)cc1 (configuration not stated) | -4%
Cc1ccc(S(=O)(=O)Nc2c(C)nc3nc[nH]n3c2=O)c(C)c1 | -3%
O=C(CSCc1n[nH]c(=O)[nH]1)NCCOc1cccc(Oc2ccccc2)c1 | 5%
Cc1nn(CC(=O)N2CCC(C(N)=O)CC2)c(=O)c2nn(-c3ccccc3)c(C)c12 | 10%
COc1ccc(N2CCN(C(=O)[C@H](Cc3c[nH]c4ccccc34)NC(C)=O)CC2)cc1 | -11%
CC(NC(=O)c1ccc2c(c1)OCO2)c1cccc(C(F)(F)F)c1 (configuration not stated) | 9%
Cc1cc(-c2csc(N)n2)c(C)n1C | 8%
O=C(NC(Cc1ccccc1)C(=O)O)/C(=C\c1ccco1)NC(=O)c1ccccc1Br (configuration not stated) | -25%
CC1(c2ccccc2)NC(=O)N(CC(=O)Nc2ccccc2N2CCCCC2)C1=O (configuration not stated) | -14%
COc1ccc(C(=O)NCCC(=O)NCc2cc(=O)n(C)c(=O)n2C)cc1 | -7%
CCC(=O)NN1CCc2cc3ccc(C)cc3nc21 | 1%
Cc1noc(C)c1S(=O)(=O)N(CC(=O)NC1CCC(C)CC1)c1ccc(C(C)C)cc1 (configuration not stated) | 1%
CCOC(=O)c1cc(-c2ccccc2)sc1NC(=O)CSc1nnnn1C | 4%
Cn1c(N)c(C(=O)COC(=O)c2ccc(C(F)(F)F)cc2)c(=O)n(C)c1=O | -19%
CC(C)Cc1nnc(NC(=O)CC(=O)Nc2ccccc2C(=O)O)s1 | -1%
CS(=O)(=O)N1CCCC(c2nc(-c3ccc(S(=O)(=O)NCc4ccccc4)cc3)no2)C1 (configuration not stated) | 10%
Cc1ccc(Cn2c(Sc3ncccn3)nc3c2c(=O)[nH]c(=O)n3C)cc1 | -2%
O=C(/C=C/c1ccc([N+](=O)[O-])cc1)NCc1cccs1 | -11%
Cc1ccc(S(=O)(=O)Cn2nnnc2C(CC(C)C)N2CCN(C)CC2)cc1 (configuration not stated) | 5%
CN(C(=O)c1cccc(Cl)c1)C1CCCN(Cc2ccccc2F)C1 (configuration not stated) | -5%
N#Cc1ccc(CN2CC[C@@]3(CCCN(C(=O)c4ccco4)C3)C2)cc1 | ?
O=C1c2ccccc2C(O)N1Cc1ccccc1Cl (configuration not stated) | -3%
CSc1nsc(SCC(=O)Nc2ccccc2F)n1 | -2%
CCOCCCNC(=O)c1ccc(NC(=O)N2CCCCc3ccccc32)cc1 | 0%
COc1cccc(CN2c3ccccc3-c3nc(SCC(=O)Nc4ccccc4Cl)ncc3S2(=O)=O)c1 | -19%
CCC(C)NC(=O)c1ccc(Cn2c(=O)c3cccn3c3cccnc32)cc1 (configuration not stated) | 12%
Cc1cccc(CSc2nc(-c3cccc(C)c3)nc3c2Cc2c(CO)cnc(C)c2O3)c1 | 9%
COCCCn1c(SCC(=O)N2CCOCC2)nc2cc(Cl)ccc2c1=O | -22%
CC(=O)N1c2ccc(S(=O)(=O)N3CCC(C(=O)Nc4ccc(F)cc4)CC3)cc2CC1C (configuration not stated) | 1%
CC(NC(=O)COC(=O)CSCc1ccccc1)c1ccccc1 (configuration not stated) | 5%
O=C(Cc1ccccc1)NCCSCc1ccco1 | -14%
CC1CCN(CCOc2cccc(Br)c2)CC1 | -14%
COc1ccc(OCC(=O)NC2CC(C)(C)NC(C)(C)C2)cc1 | -5%
COc1ccc(CCn2c(=O)[nH]c3cc(C(=O)NCCN4CCOCC4)ccc3c2=O)cc1OC | 1%

# Not all compounds are listed (hit frequency here may not be typical).
